rRNA inh HTS: selective bacterial rRNA inhibition in E. coli | E. coli WT GFP vs humanized-ribosome RFP mutants, fluorescence, 24 h; active compounds read low; DMSO median 0, no signal -100 | GFP signal change (wild-type ribosome), % (concentration not given with the values) | 350,000 compounds, 1.6% hits | AID 720706;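 active = significant combined selectivity score with lowered wild-type GFP, culture density cut under 30%, mutant RFP and density less affected; inactive = any of these conditions unmet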; note: one replicate is shown; some compounds called inactive have numbers as strong as hits
FGF22 binding: shifts melting point of recombinant human FGF22; recombinant FGF22 thermal shift, SYPRO orange fluorescence; percent of sucrose octasulfate shift, DMSO zero; calls only at 9.99 µM; 340,000 compounds, 1.5% hits;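 active = melting point raised past a set limit in the mean and every replicate; three in four hits are not shown here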
Target sequence (Q9HCT0 whole entry, looked up): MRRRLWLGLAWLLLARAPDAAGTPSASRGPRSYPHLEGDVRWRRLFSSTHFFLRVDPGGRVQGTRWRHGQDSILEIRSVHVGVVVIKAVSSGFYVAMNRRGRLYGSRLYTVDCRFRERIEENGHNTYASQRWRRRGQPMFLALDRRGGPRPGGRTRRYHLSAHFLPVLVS
E coli growth: blocks Escherichia coli growth | OD600, 23 h; active compounds read low | OD600 absorbance (test concentration not listed) | AID 1053175 | 330,000 compounds, 0.21% hits;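 active = OD600 absorbance below the run mean of sample wells minus 3.6 SD, in any replicate, cut at about 0.56 in these data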;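 note: stock transfer was 300 nL into about 60 µL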
ALR H2O2 inh: blocks human ALR sulfhydryl oxidase activity; purified ALR, DTT oxidation, H2O2 HRP-luminol luminescence; 290,000 compounds, 3.8% hits; P55789; inhibition, % (concentration not given with the values);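 active = mean and each replicate at 75% or more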;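 note: stock transfer was 7.5 nL into about 7.5 µL; 0% = neutral wells and 100% = wells with inactivated enzyme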
B2AR ag: activates human beta-2 adrenergic receptor causing internalization; P07550; Am2.2-beta2AR cells, FAP receptor internalization, flow cytometry; reference of the scale not given here; response, % (concentration not given with the values); 340,000 compounds, 0.43% hits; AID 504454;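 active = response above a set limit, near 3 SD of response in nonfluorescent compounds, cut at about 42% in these data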;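 note: stock transfer was 100 nL into about 11 µL; a reference agonist was the positive control; negative values mostly stem from fluorescent compounds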
Target sequence (P07550 whole entry, looked up): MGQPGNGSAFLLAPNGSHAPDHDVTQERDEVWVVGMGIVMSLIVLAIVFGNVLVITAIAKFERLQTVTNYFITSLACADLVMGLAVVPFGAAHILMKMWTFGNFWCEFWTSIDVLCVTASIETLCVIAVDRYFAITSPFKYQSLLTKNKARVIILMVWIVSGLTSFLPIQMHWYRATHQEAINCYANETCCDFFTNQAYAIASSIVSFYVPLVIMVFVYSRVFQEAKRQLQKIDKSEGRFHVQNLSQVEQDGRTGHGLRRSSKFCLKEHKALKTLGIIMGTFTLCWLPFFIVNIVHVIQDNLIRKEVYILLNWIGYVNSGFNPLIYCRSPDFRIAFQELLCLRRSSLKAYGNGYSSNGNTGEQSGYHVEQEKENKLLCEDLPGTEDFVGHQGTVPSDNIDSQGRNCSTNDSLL
UCH37 inh: human UCH37 deubiquitinating enzyme inhibition. Q9Y5K5. purified proteasome/UCH37, Ub-AMC cleavage fluorescence. inhibition, % (test concentration not listed). 330,000 compounds, 0.33% hits. AID 588478;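 active = mean of two replicates above 20%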;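 note: 0% = compound-free wells with enzyme and 100% = wells lacking proteasome; stock transfer was 100 nL into about 20 µL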
Target sequence (Q9Y5K5 whole entry, looked up): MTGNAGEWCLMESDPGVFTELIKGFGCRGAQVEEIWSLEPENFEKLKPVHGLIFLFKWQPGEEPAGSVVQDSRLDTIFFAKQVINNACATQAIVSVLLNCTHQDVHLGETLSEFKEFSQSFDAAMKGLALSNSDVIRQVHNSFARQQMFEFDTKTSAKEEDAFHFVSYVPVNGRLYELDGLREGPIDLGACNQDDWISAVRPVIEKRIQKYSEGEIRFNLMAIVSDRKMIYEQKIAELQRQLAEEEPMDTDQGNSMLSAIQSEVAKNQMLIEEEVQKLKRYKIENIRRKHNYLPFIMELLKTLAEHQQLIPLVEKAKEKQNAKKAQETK
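Test system – human UCH37 enzyme supplied as purified proteasome complex · Incubation – 30 min preincubation with enzyme, 25 min cleavage at room temperature · Detection – AMC fluorescence from Ub-AMC cleavage, excitation 355 nm, emission 460 nm · Benchmarks – no-proteasome wells (full inhibition) and compound-free wells (no inhibition)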
HNF4A DNA FP: change in binding of human HNF4 alpha to DNA; AID 1224865; activity change, % at 10 µM; P41235; HNF4a-FITC DNA binding, fluorescence polarization, 1 h; 360,000 compounds, 0.3% hits; in the data active = activity change above about 30%, passing the limit was not always enough;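 note: controls were the assay level and a saturating level of protein; the project sought stronger binding though the title names inhibitors; some compounds called inactive have numbers as strong as hits; positive values seem to mean higher polarization but the record does not say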
rRNA inh HTS OD600: second read-out of rRNA inh HTS, no call of its own (marks repeat the call); OD600 change, %; measured here: OD600 growth;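 optical density of the mix in the first replicate; 0 = DMSO median and -100 = no signal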
rRNA inh HTS RFP: further read-out of rRNA inh HTS, marked with its call; RFP signal change, %; measured here: RFP humanized mutant strains;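 first replicate; 0 = DMSO median and -100 = no signal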
The depositor's hits bear a star; i = inactive; nt = no result given; & = joins results of further samples. This is a subset; the hit share may differ from the screen's.

SMILES,rRNA inh HTS,rRNA inh HTS OD600,rRNA inh HTS RFP,FGF22 binding,E coli growth,ALR H2O2 inh,B2AR ag,UCH37 inh,HNF4A DNA FP
COc1cccc(CNC(=O)C2CCCN(S(C)(=O)=O)C2)c1 (stereo not drawn),nt,nt,nt,nt,0.7,-8,9,2.7,0.9
COC(=O)c1cccc(NC(=O)c2ccc(OC)c(Cl)c2)c1,-30*,-24*,3.4*,i,0.67,40,-2,5.7,6.1
CCCCNC(C(=O)Nc1ccc(Cl)c([N+](=O)[O-])c1)c1ccccc1 (stereo not drawn),nt,nt,nt,nt,0.64,-22,7,4.2,0.0
CCN(CC(=O)Nc1ccc2c(c1)OCO2)CC(=O)Nc1ccccc1C(F)(F)F,2,6,3.9,i,0.65,nt,33,-1.8,-1.5
COc1ccc(Br)cc1/C=N/NC(=O)c1cc(OC)c(OC)c(OC)c1,nt,nt,nt,nt,nt,-6,9,nt,1.3
CC(C)Cc1nnc(NC(=O)c2cccc(S(=O)(=O)N3CCN(C)CC3)c2)s1,-4,-1,-3.2,i,0.66,0,0,3.1,-1.6
CC1(C)Cc2c(sc3c2c(=N)n(Cc2ccco2)c(=O)n3Cc2ccc(Cl)cc2)CO1,nt,nt,nt,nt,0.79,-2,5,0.6,3.2
CCCNC(=O)c1cc2c(c(-c3cccc(-c4cc5ccccc5o4)c3)n1)[C@H](CCO)N(C(=O)NC(C)C)C2,1&3,0&11,-1.2&-4.0,i,nt,nt,nt,nt,-3.7
FC(F)(F)c1nnc2n1N=C(c1ccccc1)CS2,8,3,-0.5,i,0.69,-19,-4,3.9,1.6
O=C1NCCN/C1=C\C(=O)c1ccc(Cl)cc1,2,-6,2.5,i,0.67,-6,-4,15,5.2
O=C(Nc1ccc2c(c1)OCO2)C1CC(=O)N(CCc2ccccc2)C1 (stereo not drawn),9,1,2.0,i,0.69,nt,-2,-1.0,2.1
COc1ccc(NC(=O)c2ccco2)cc1NC(=O)c1cc2ccccc2o1,nt,nt,nt,nt,0.7,-5,-2,-87,-2.8
OCC(CO)(CO)n1cnnn1,nt,nt,nt,nt,0.71,-3,-2,2.7,2.8
O=C(c1cc(COc2cccc3cccnc23)on1)N1CCC[C@H]1CO,1,4,4.1,i,nt,nt,nt,nt,2.3
CC(C)(C)c1csc(CS(=O)(=O)c2ccccn2)n1,nt,nt,nt,i,0.68,-8,9,1.5,-2.9
COc1ccc(S(=O)(=O)NCc2cccs2)cc1,nt,nt,nt,nt,0.7,2,-2,1.0,-1.6
Cc1noc(C)c1COc1ccccc1C(=O)N(C)CC(=O)Nc1ccc(F)cc1,0,4,-3.1,i,0.63,-3,-2,1.3,4.6
Oc1cccc(C(=S)N2CCCCC2)c1,13,9,-0.6,i,0.68,10,-1,3.7,1.2
CCOc1ccccc1NC(=O)C1CCCCN1S(=O)(=O)c1ccc(F)cc1 (stereo not drawn),-17,-15,-3.8,i,0.7,-4,-15,2.1,1.1
COc1ccccc1-c1nc2cc3ccccc3cc2nc1-c1ccccc1OC,nt,nt,nt,nt,0.7,-10,3,4.9,1.4
O=C(NCCCNc1ccnc2cc(Cl)ccc12)c1ccccc1F,-3,-6,2.4,i,0.65,-4,-16,0.5,3.7
CCCc1nc2c(c(=O)c3ccccc3n2C)c(=O)n1-c1ccc(F)cc1,nt,nt,nt,nt,0.68,-5,-4,3.1,1.5
Cc1c(C(=O)Nc2nonc2-c2ccc(F)cc2)oc2ccc(F)cc12,-23,-51,-14,i,nt,3,4,nt,4.9
N#C/C(=C\c1ccc([N+](=O)[O-])cc1)c1nc(C2CC2)cs1,nt,nt,nt,nt,0.66,2,5,-9.6,-2.5
Cc1ccn2c(=O)nc(SCC(=O)NC3CCCCC3)nc2c1,15,10,1.4,nt,nt,17,-3,nt,1.2
Cc1ccc2c(c1)NC(=O)CC(c1ccccc1)=N2,nt,nt,nt,nt,0.62,-4,-10,0.4,-1.6
CN(CC(=O)Nc1ccccc1Cl)C(=O)COC(=O)c1ccc(Cl)cc1[N+](=O)[O-],0,-3,-0.1,i,0.66,-13,-11,-1.8,-0.5
CC1(C)Cc2ccccc2C(=NCCCC(=O)O)N1,nt,nt,nt,nt,0.66,nt,1,0.2,-3.7
Cc1ccc(-c2ccc(SCC(=O)Nc3nonc3C)nn2)cc1,nt,nt,nt,nt,0.66,-9,-5,-0.3,-4.6
Cc1cccc(C)c1NC(=O)C(C)n1c(-c2ccc(=O)[nH]c2)nc2ccccc21 (stereo not drawn),7,7,1.0,i,nt,nt,nt,nt,1.6
CCOc1ccc(C(=O)NCC(=O)NCC(c2ccco2)N2CCCCC2)cc1OCC (stereo not drawn),6,10,-1.0,i,0.7,2,0,1.5,-1.9
CCN(CC)S(=O)(=O)c1ccc(N2CCCC2)c(NC(=O)c2nn(C)c(=O)c3ccccc23)c1,-6,-5,11,i,0.73,-27,9,4.8,-3.1
COC(=O)CC(NC(=O)c1ccc(C)cc1)c1ccc2c(c1)OCO2 (stereo not drawn),nt,nt,nt,nt,0.73,-3,7,3.1,-1.1
O=C(NC1CCCCC1)c1ccc(CN2CCOCC2)cc1,nt,nt,nt,nt,0.73,nt,0,1.1,-1.8
CSc1ccc(C(O)c2ncc(-c3ccccc3F)[nH]2)cc1 (stereo not drawn),-2,6,-0.7,i,nt,nt,nt,nt,-1.0
CCSc1nc(C(F)(F)F)cc(=O)n1-c1ccccc1,nt,nt,nt,nt,0.69,-2,8,-4.0,-0.9

Profiles, looked up by structure. Order of screens: rRNA inh HTS, rRNA inh HTS OD600, rRNA inh HTS RFP, FGF22 binding, E coli growth, ALR H2O2 inh, B2AR ag, UCH37 inh, HNF4A DNA FP
Entry for `Cc1ccn2c(=O)nc(SCC(=O)NC3CCCCC3)nc2c1` : 15, 10, 1.4, nt, nt, 17, -3, nt, 1.2
Entry for `CCOc1ccc(C(=O)NCC(=O)NCC(c2ccco2)N2CCCCC2)cc1OCC` (stereo not drawn) : 6, 10, -1.0, i, 0.7, 2, 0, 1.5, -1.9

The results go on:
SMILES,rRNA inh HTS,rRNA inh HTS OD600,rRNA inh HTS RFP,FGF22 binding,E coli growth,ALR H2O2 inh,B2AR ag,UCH37 inh,HNF4A DNA FP
Cc1n[nH]c(C)c1S(=O)(=O)N1CCCC(C(=O)NC2CCCc3ccccc32)C1 (stereo not drawn),1,-10,1.8,i,0.73,-12,10,1.2,2.9
O=C(C1CC1)N1CCc2cc(S(=O)(=O)NCC3COc4ccccc4O3)ccc21 (stereo not drawn),nt,nt,nt,nt,0.72,-4,-20,-0.8,0.3
CC(C)CCN(C(=O)C1CSC2(C)CCC(=O)N12)c1c(N)n(Cc2ccccc2)c(=O)[nH]c1=O (stereo not drawn),2,4,-0.1,i,0.68,nt,2,0.5,1.1
O=C(O)COc1ccccc1/C=N/NC(=O)CSc1nc2ccccc2n1Cc1ccccc1,-15,-16,-1.4,i,nt,nt,-4,nt,-0.7
CC(NC(=O)Cn1c(=O)[nH]c2ccsc2c1=O)C12CC3CC(CC(C3)C1)C2 (stereo not drawn),nt,nt,nt,nt,0.71,nt,-16,4.5,3.8
Cc1cccc(NC(=O)NC2CCCCCCC2)c1,nt,nt,nt,i,0.7,-3,-6,3.4,-1.0
Cc1c(Nc2ccc3nonc3c2[N+](=O)[O-])c(=O)n(-c2ccccc2)n1C,8,5,0.2,i,0.64,-3,4,11,2.5
CCCN(CCC)c1nc2ccccc2nc1C(C#N)C(=O)OC(C)COC (stereo not drawn),nt,nt,nt,nt,0.74,4,nt,-11,nt
Cc1ccc(-c2noc(CCC(=O)Nc3ccc(C)cn3)n2)cc1,nt,nt,nt,nt,0.79,-6,-6,2.9,2.3
Cc1c(NC(=O)c2ccccc2NC(=O)COc2ccccc2)cccc1C(=O)O,11,5,0.3,i,0.73,nt,-3,2.3,0.0
CCN(C[C@H]1N[C@@](C)(C(=O)OC)[C@H]2C(=O)N(Cc3ccccc3)C(=O)[C@@H]12)C(=O)c1ccc(F)cc1,13,11,2.5,i,0.69,nt,-3,1.3,-3.5
CCC(C)(C)n1nnnc1C(C(C)C)N1CCN(C(=O)c2ccco2)CC1 (stereo not drawn),1,-4,-1.9,i,0.66,-2,-6,2.3,0.1
Cc1ccc(/C=C2\SC(=S)N(CCC(=O)NNS(=O)(=O)c3ccc(C)cc3)C2=O)cc1,8,8,-0.5,i,0.72,-25,-7,8.8,6.8
CC(=O)Oc1ccccc1/C=C/c1ccc2ccccc2[n+]1C,-40,-34,0.0,i,0.65,32,2,9.2,2.4
CCOc1ccc(NC(=O)COc2ccc(C(=O)NCc3cccnc3)cc2OC)cc1,6,2,1.1,i,0.71,nt,3,-2.0,-1.1
COC(=O)c1ccccc1NC(=O)C1CCN(S(=O)(=O)c2cc(C)ccc2OC)CC1,nt,nt,nt,nt,0.66,-5,-3,-0.1,0.8
COc1ccc(-n2cc(-c3ccc(OC)c(OC)c3)[nH]c2=S)cc1,7,2,4.2,i,nt,nt,3,nt,-3.6
COc1cccc(N=Cc2nc(-c3ccccc3)oc2OC(C)=O)c1,15,7,1.5,i,0.67,44,-5,6.0,1.8
Cc1nc(SC2CC(=O)N(c3ccccc3)C2=O)nc2c1CCCC2 (stereo not drawn),nt,nt,nt,nt,0.7,4,-16,1.6,-0.4
COc1cc(/C=C2\SC(N)=NC2=O)ccc1O,-2,4,3.1,nt,0.71,8,1,8.2,7.0
CC(=O)N1CCc2cc(S(=O)(=O)NC(CC(C)C)C(=O)Nc3cc(C(=O)O)ccc3C)ccc21 (stereo not drawn),nt,nt,nt,nt,0.74,-12,-19,1.9,2.7
Cc1nc(C)c(-c2ccc(SCC(=O)Nc3ccc(F)cc3F)nn2)s1,9,6,3.5,i,0.68,-3,4,4.8,-1.1
Cc1ccccc1NC(=O)COC(=O)c1ccc(S(C)(=O)=O)c([N+](=O)[O-])c1,20,5,-2.8,i,0.69,-4,16,6.2,3.2
COc1c(F)c(F)c(C(=O)O)c(Nc2cc(C)cc(C)c2)c1F,-9,-6,-3.3,i,0.7,11,-1,2.2,-4.1
C=CCn1c(CSc2nc3ccccc3s2)nnc1SCC(=O)NCc1ccco1,nt,nt,nt,nt,0.73,61,-8,-1.7,-4.1
COc1ccc(CSc2nnnn2-c2ccccc2)cc1,nt,nt,nt,nt,0.72,-20,-3,-1.9,0.5
S=C(NC1CCCCC1)N1CCN(c2ncccn2)CC1,13,9,-4.6,i,0.7,-5,-10,3.5,3.5
NS(=O)(=O)c1ccc(-c2ccc(C=C3C(=O)c4ccccc4C3=O)o2)cc1,5,4,7.2,i,0.68,-11,-1,5.6,2.1
CCc1ccccc1NC(=O)NNC(=O)CCc1ccc(OC)cc1,10,3,2.6,i,0.69,-5,-10,-1.2,5.2
O=c1c(-c2ccccc2)nc2ccccc2n1C(CCc1ccccc1)c1nc2ccccc2[nH]1 (stereo not drawn),13,22,3.6,i,nt,nt,nt,nt,0.1
COc1ccccc1C(=O)NC(=O)COC(=O)C1(C)CC1(Cl)Cl (stereo not drawn),7,4,-1.2,i,0.69,-2,2,-1.7,-1.0
CC1(C)C(=O)Nc2ccccc2N1C(=O)CN1C(=O)NC(CCc2ccccc2)C1=O (stereo not drawn),3,-6,0.1,i,0.68,-1,-4,5.4,-1.4
O=S(=O)(c1ccc(Cl)cc1)N1CCC(c2nc3ccccc3[nH]2)CC1,1,4,0.0,i,0.62,1,-15,2.7,-1.6
Oc1ccc(C2C=C(c3ccc(F)cc3)Nc3ncnn32)cc1 (stereo not drawn),-8,1,7.0,i,0.68,nt,7,-30,-6.8

Compound activity (PubChem BioAssay)
